Ecoli rRNA inh: selective bacterial rRNA inhibition in E. coli | 350,000 compounds, 1.6% hits | E. coli WT GFP vs humanized-ribosome RFP mutants, fluorescence, 24 h; hits give low values; DMSO median 0, no signal -100 | GFP signal change (wild-type ribosome), % (test concentration not listed);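 active = significant combined selectivity score with lowered wild-type GFP, culture density cut under 30%, mutant RFP and density less affected; inactive = any of these conditions unmet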; note: one replicate is shown; some compounds called inactive have numbers as strong as hits
ALR inh: blocks human ALR sulfhydryl oxidase activity; 290,000 compounds, 3.8% hits; purified ALR, DTT oxidation, H2O2 HRP-luminol luminescence; P55789; inhibition, % (concentration not given with the values);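 active = mean and each replicate at 75% or more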;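 note: stock transfer was 7.5 nL into about 7.5 µL; 0% = neutral wells and 100% = wells with inactivated enzyme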
FGF22 binding: binders of recombinant human FGF22 by thermal shift | calls only at 9.99 µM | SYPRO orange fluorescence; percent of sucrose octasulfate shift, DMSO zero | AID 651658 | Q9HCT0 | 340,000 compounds, 1.5% hits;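 active = melting point raised past a set limit in the mean and every replicate; three in four hits are not shown here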
Target sequence (Q9HCT0 whole entry, looked up): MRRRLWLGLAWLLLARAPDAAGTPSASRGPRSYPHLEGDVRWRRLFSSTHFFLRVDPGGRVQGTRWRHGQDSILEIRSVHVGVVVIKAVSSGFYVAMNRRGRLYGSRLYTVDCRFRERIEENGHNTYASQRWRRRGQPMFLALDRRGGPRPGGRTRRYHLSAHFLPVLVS
HNF4A DNA FP: change in binding of human HNF4 alpha to DNA; HNF4a-FITC DNA binding, fluorescence polarization, 1 h; activity change, % at 10 µM; 360,000 compounds, 0.3% hits; in the data active = activity change above about 30%, passing the limit was not always enough;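 note: controls were the assay level and a saturating level of protein; the project sought stronger binding though the title names inhibitors; some compounds called inactive have numbers as strong as hits; positive values seem to mean higher polarization but the record does not say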
Target sequence (P41235 whole entry, looked up): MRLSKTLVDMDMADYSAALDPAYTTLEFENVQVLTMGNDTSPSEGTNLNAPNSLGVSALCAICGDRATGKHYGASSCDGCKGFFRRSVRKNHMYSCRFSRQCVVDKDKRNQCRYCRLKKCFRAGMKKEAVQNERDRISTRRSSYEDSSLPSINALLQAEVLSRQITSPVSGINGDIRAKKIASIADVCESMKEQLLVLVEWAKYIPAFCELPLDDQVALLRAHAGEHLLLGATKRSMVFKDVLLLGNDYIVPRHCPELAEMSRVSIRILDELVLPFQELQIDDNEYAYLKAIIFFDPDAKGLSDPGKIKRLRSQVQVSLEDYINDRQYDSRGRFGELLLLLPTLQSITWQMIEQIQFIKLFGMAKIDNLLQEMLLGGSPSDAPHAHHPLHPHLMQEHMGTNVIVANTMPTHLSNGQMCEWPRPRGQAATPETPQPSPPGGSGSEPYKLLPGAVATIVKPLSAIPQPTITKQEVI
Beta2AR agonist: human beta-2 adrenergic receptor agonism by FAP | P07550 | Am2.2-beta2AR cells, FAP receptor internalization, flow cytometry; reference of the scale not given here | response, % (no concentration beside the values) | 340,000 compounds, 0.43% hits;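 active = response above a set limit, near 3 SD of response in nonfluorescent compounds, cut at about 42% in these data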;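 note: stock transfer was 100 nL into about 11 µL; a reference agonist was the positive control; negative values mostly stem from fluorescent compounds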
UCH37 inh: inhibitors of human deubiquitinating enzyme UCH37; Q9Y5K5; purified proteasome/UCH37, Ub-AMC cleavage fluorescence; inhibition, % (concentration not given with the values); 330,000 compounds, 0.33% hits;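 active = mean of two replicates above 20%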;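 note: 0% = compound-free wells with enzyme and 100% = wells lacking proteasome; stock transfer was 100 nL into about 20 µL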
Target sequence (Q9Y5K5 whole entry, looked up): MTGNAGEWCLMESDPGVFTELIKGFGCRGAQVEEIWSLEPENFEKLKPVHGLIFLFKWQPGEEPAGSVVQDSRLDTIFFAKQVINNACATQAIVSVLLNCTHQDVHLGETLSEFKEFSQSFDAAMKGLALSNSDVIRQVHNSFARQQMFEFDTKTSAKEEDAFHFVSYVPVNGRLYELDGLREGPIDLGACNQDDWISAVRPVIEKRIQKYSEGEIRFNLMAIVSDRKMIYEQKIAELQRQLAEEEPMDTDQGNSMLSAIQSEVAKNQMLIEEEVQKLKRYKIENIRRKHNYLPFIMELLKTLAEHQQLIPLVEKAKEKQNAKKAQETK
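Schedule: 30 min plus 25 min, room temperature / Material: human UCH37 within purified proteasomes / Technique: AMC fluorescence intensity at 355/460 nm / Buffer or medium: pH 7.4 Tris-HCl (50 mM) with ovalbumin, ATP-MgCl2, DTT / Controls: wells without proteasome as full block, compound-free enzyme plus substrate as uninhibited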
Ecoli growth: inhibitors of Escherichia coli growth; OD600, 23 h; hits give low values; OD600 absorbance (test concentration not listed); 330,000 compounds, 0.21% hits; AID 1053175;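 active = OD600 absorbance below the run mean of sample wells minus 3.6 SD, in any replicate, cut at about 0.56 in these data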;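 note: stock transfer was 300 nL into about 60 µL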
Ecoli rRNA inh OD600: second read-out of Ecoli rRNA inh, no call of its own (marks repeat the call); OD600 change, %; measured here: OD600 growth;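 optical density of the mix in the first replicate; 0 = DMSO median and -100 = no signal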
Ecoli rRNA inh RFP: further read-out of Ecoli rRNA inh, marked with its call; RFP signal change, %; measured here: RFP humanized mutant strains;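 first replicate; 0 = DMSO median and -100 = no signal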
* = called active by the depositor; i = inactive; / = not tested or not shown. These rows are one share of the data, so the mix of outcomes need not match the whole.

SMILES	Ecoli rRNA inh	Ecoli rRNA inh OD600	Ecoli rRNA inh RFP	ALR inh	FGF22 binding	HNF4A DNA FP	Beta2AR agonist	UCH37 inh	Ecoli growth
CC(=O)c1cn(CC(=O)Nc2ccccc2C(F)(F)F)c2ccccc12	11	8	-0.2	-8	i	-2.3	22	-1.4	0.67
COCCNC(=O)/C(C#N)=C/c1ccc(OCc2ccc(F)cc2)cc1	11	5	0.4	-1	i	5.0	7	0.6	0.71
CCOC(=O)c1cnc2ccc(OCC)cc2c1NCCN1CCOCC1	-21	-25	2.1	-9	i	0.9	3	-12	0.67
O=S1(=O)C=C(Oc2ccc3ccccc3c2)c2ccccc21	/	/	/	/	/	-3.4	1	0.4	0.7
COC(=O)[C@]12CCCCC=C1N(CCC1=CCCCC1)C(=O)[C@H](CC(=O)N1CCN(C(=O)C3CC3)CC1)C2	-22	-24	-1.9	/	i	-2.2	/	/	/
COc1cc(C(=O)NCCc2ccc(S(N)(=O)=O)cc2)ccc1OCc1c(C)noc1C	11	15	-0.6	-1	i	-0.7	10	2.0	0.69
O=C(CCCCn1cnc2c(=S)nc[nH]c21)Nc1ccc(C(=O)O)cc1	8	6	4.8	/	/	0.9	-3	3.7	0.64
Cc1cc(C)c(NC(=O)CNC(=O)CNC(=O)C2CCCCC2)c(C)c1	21	15	2.6	-1	i	0.2	-3	-0.2	0.68
OCC1(Cc2ccccc2)CCN(C2CCN(c3ccc(F)c(F)c3)CC2)CC1	6	-4	2.7	-1	i	5.7	0	3.9	0.68
CC(C)NC(=O)C1CCCN(S(C)(=O)=O)C1 (stereo unspecified)	/	/	/	1	/	-1.0	5	-0.9	0.71
O=C(CNC(=O)c1ccncc1)N/N=C/c1cc(Br)ccc1O	/	/	/	27	/	0.0	-9	/	/
O=C(/C=C/[C@H]1O[C@@H](n2ccc(=O)[nH]c2=O)[C@H](O)[C@@H]1O)NCCN1CCCCC1	1	6	4.4	/	i	-3.4	/	/	/
CCCOc1ccc(/C(O)=C2\C(=O)C(=O)N(CCCOC)C23C(=O)N(C)c2ccccc23)cc1 (stereo unspecified)	/	/	/	-2	/	1.1	-2	0.3	0.76
COc1ccc(C(=O)c2c3ccc(C(F)(F)F)cc3[n+]([O-])n2CCCC(N)=O)cc1	4	-10	8.2	14	i	-5.5	-15	3.3	0.65
Cc1ccc(S(=O)(=O)N2CCCc3ccccc32)cc1	-43	-44	-6.9	/	i	-4.4	/	/	/
O=C(O)CSCc1nc2ccccc2s1	/	/	/	/	/	1.7	-4	2.7	0.72
Cc1oc(CC(C)C)cc1C(N)=O	3	3	-2.3	3	i	0.1	-13	-0.8	0.66
COc1ccc(Br)cc1CNC(=O)CCNC(=O)Cn1ccc2ccccc2c1=O	13	19	0.0	/	i	-1.6	-13	0.6	0.68
COc1ccc(/C=N/NC(C)(C)C)c(OC)c1	13	9	3.6	-53	i	3.6	-5	/	/
COc1cc(CNC(=O)c2ccc(Cn3nc(C)c(Cl)c3C)o2)cc(OC)c1	/	/	/	30	/	-0.4	4	5.1	0.69
CCOC(=O)c1c(-c2ccccc2)nc2ccc(C)cn12	/	/	/	-5	/	-0.1	-9	1.0	0.64
COc1ccc2c(C)nc(Nc3nc(C)c(C)c(=O)[nH]3)nc2c1	/	/	/	-8	/	9.8	0	4.8	0.65
CC(Sc1nnc2n1CCCCC2)C(=O)Nc1ccc(S(N)(=O)=O)cc1 (stereo unspecified)	10	7	2.7	/	i	2.7	-9	-2.2	0.71
Cc1ccc(Cn2c(=N)n(CC(O)COc3ccccc3)c3ccccc32)cc1 (stereo unspecified)	-46	-47	-17	-31	i	-0.2	34	5.0	0.6
C=CCN(c1cccc(C(F)(F)F)c1)S(=O)(=O)c1cccc(C(=O)OCC(=O)NC)c1	-17	-31	-9.1	3	/	1.2	-2	6.0	0.69

Further structures follow.
SMILES	Ecoli rRNA inh	Ecoli rRNA inh OD600	Ecoli rRNA inh RFP	ALR inh	FGF22 binding	HNF4A DNA FP	Beta2AR agonist	UCH37 inh	Ecoli growth
Cc1cc(C)c2oc(C(=O)Nc3nnc(C(C)C)s3)cc(=O)c2c1	-13	16	3.6	57	i	0.2	4	14	0.69
COc1ccc(S(=O)(=O)N2CCN(CC(=O)Nc3ccccc3OC)CC2)cc1	3	1	-0.5	6	i	3.6	5	1.5	0.66
COc1ccc2c(c1)C1(Nc3ccccc3C(=O)N1c1ccccc1)C(=O)N2 (stereo unspecified)	6	2	3.6	-3	i	-0.9	-4	2.0	0.71
Cc1ccc(S(=O)(=O)N2CCCCC2CCNC(=O)C(=O)NCCc2ccco2)cc1 (stereo unspecified)	-4	-19	6.7	-29	i	-3.5	-8	1.7	0.7
Cc1sc(N)nc1C12CC3CC(CC(C3)C1)C2	-34	-47	-5.6	72	i	-0.3	13	3.7	0.6
Cc1nn(C)c(C(=O)Nc2ccc(Cl)c([N+](=O)[O-])c2)c1Cl	/	/	/	-1	/	-1.1	-1	1.9	0.71
COc1ccc(C(=O)O/N=C2\CCCc3nonc32)cc1	/	/	/	-1	/	1.8	-3	/	/
CCN1CCCC1CNC(=O)c1cc(N)ccc1OC (stereo unspecified)	12	6	5.4	6	i	3.5	-5	-22	0.64
COc1ccc(-n2nc(C(=O)NCC(=O)NC3CCCCCC3)c3ccccc3c2=O)c(OC)c1	0	7	2.5	2	i	1.3	-6	2.3	0.66
COc1ccc(C(=O)N2CCC(C(=O)NCc3ccccn3)CC2)cc1	/	/	/	-2	/	-2.6	8	7.9	0.71
O=C(Nc1nc(-c2ccc3c(c2)OCO3)cs1)C1COc2ccccc2O1 (stereo unspecified)	-2	-22	-7.8	-5	i	2.5	10	4.4	0.78
COc1ccc(OC)c(S(=O)(=O)Nc2cccc3c(O)cccc23)c1	-28	-23	-3.1	87*	i	-4.2	7	3.6	0.64
Cc1ccccc1Oc1nc2ccccn2c(=O)c1/C=C(\C#N)C(=O)Nc1c(C)n(C)n(-c2ccccc2)c1=O	/	/	/	16	/	-4.3	3	-15	0.71
Cc1c(S(=O)(=O)N2CCCC(C(=O)O)C2)cnn1C (stereo unspecified)	23	4	-1.3	-17	i	-1.3	6	-1.3	0.62
COc1ccc(NC(=O)c2ccc(COCC(F)(F)F)cc2)cc1OC	/	/	/	/	/	4.0	7	1.1	0.66
COCCCNC(=O)CC1Oc2ccccc2NC1=O (stereo unspecified)	14	5	-0.3	-29	i	-2.0	5	4.9	0.77
CCOC(=O)C(NC(C)=O)C(=O)Nc1ccc(C(C)C)cc1 (stereo unspecified)	/	/	/	-36	/	-0.5	28	2.9	0.7
CN(C)Cc1c(-c2ccc(Cl)cc2)nc2ccccn12	3	6	-3.9	-4	i	-2.0	-12	-2.5	0.7
CCCN1C(=O)c2ccccc2NC1c1cc(OC)c(OC)c(OC)c1 (stereo unspecified)	/	/	/	-2	/	-2.6	-3	-306	0.72
CCOC(=O)N1CCN(C(=O)CSc2cc(C)nc3c(-c4ccccc4OC)c(C)nn23)CC1	/	/	/	-5	/	2.0	5	6.9	0.7
COc1ccc(S(=O)(=O)N2CCOCC2)cc1NC(=O)COc1ccc2c(C)cc(=O)oc2c1	5	4	-1.1	-4	i	6.5	5	-65	0.67
Cc1cc(C)nc(NS(=O)(=O)c2ccc(NC(=O)c3ccc(S(=O)(=O)N4CC(C)OC(C)C4)cc3)cc2)n1 (stereo unspecified)	/	/	/	-7	/	3.0	-2	-0.7	0.72
CCOC(=O)C1=C(N)N(c2ccc(N3CCCCC3)cc2)C(=O)C1	/	/	/	36	/	1.2	-1	3.3	0.7
COc1ccc(C(=O)NCCc2nnc3ccc(SCC(=O)N4CCCCC4)nn23)cc1	2	-4	1.9	3	i	0.7	1	-0.3	0.7
CSc1c(SCc2ccccc2)cnn(Cc2ccccc2)c1=O	/	/	/	3	/	-1.4	-1	3.1	0.62

6 neighbouring records out of the list so far, for reference:
SMILES	Ecoli rRNA inh	Ecoli rRNA inh OD600	Ecoli rRNA inh RFP	ALR inh	FGF22 binding	HNF4A DNA FP	Beta2AR agonist	UCH37 inh	Ecoli growth
Cc1cc(C)c2oc(C(=O)Nc3nnc(C(C)C)s3)cc(=O)c2c1	-13	16	3.6	57	i	0.2	4	14	0.69
COc1ccc(S(=O)(=O)N2CCN(CC(=O)Nc3ccccc3OC)CC2)cc1	3	1	-0.5	6	i	3.6	5	1.5	0.66
COc1ccc2c(c1)C1(Nc3ccccc3C(=O)N1c1ccccc1)C(=O)N2 (stereo unspecified)	6	2	3.6	-3	i	-0.9	-4	2.0	0.71
Cc1ccc(S(=O)(=O)N2CCCCC2CCNC(=O)C(=O)NCCc2ccco2)cc1 (stereo unspecified)	-4	-19	6.7	-29	i	-3.5	-8	1.7	0.7
Cc1sc(N)nc1C12CC3CC(CC(C3)C1)C2	-34	-47	-5.6	72	i	-0.3	13	3.7	0.6
Cc1nn(C)c(C(=O)Nc2ccc(Cl)c([N+](=O)[O-])c2)c1Cl	/	/	/	-1	/	-1.1	-1	1.9	0.71

(more compounds)
SMILES	Ecoli rRNA inh	Ecoli rRNA inh OD600	Ecoli rRNA inh RFP	ALR inh	FGF22 binding	HNF4A DNA FP	Beta2AR agonist	UCH37 inh	Ecoli growth
Cc1cc(=O)n2nc(N3CCCC(C(=O)NCc4cccc(Cl)c4)C3)sc2n1 (stereo unspecified)	-2	-5	-4.3	-9	i	-1.0	6	1.0	0.64
CCOc1cc(/C=C2\N=C(SCC)SC2=O)cc([N+](=O)[O-])c1OC(C)=O	/	/	/	34	/	5.4	7	8.6	0.67
CC(NS(=O)(=O)c1ccccc1)C(=O)Nc1nccs1 (stereo unspecified)	/	/	/	31	/	-0.5	-4	-1.4	0.68
Cc1onc(-c2ccccc2)c1C(=O)Nc1ccc(S(=O)(=O)N2CCOCC2)cc1	0	-6	-0.3	2	/	-4.9	1	2.3	0.67
CC(=O)NC1CCN(C(=O)N2CCCC2)CC1	/	/	/	/	/	-1.4	8	0.3	0.74
CCOC(=O)C1CCN(CCC(=O)Nc2ccc(Br)c(C)c2)CC1	4	-13	4.8	-8	i	0.1	6	4.0	0.63
COc1ccccc1CNC(=O)CCC1N=C2c3ccccc3N=C(SCC(=O)NCC3CCCO3)N2C1=O (stereo unspecified)	-8	-1	-4.9	1	i	-0.7	-6	-24	0.6
Cc1ccccc1OCCC(=O)NNC(=O)COc1cccc(F)c1	/	/	/	-7	i	-5.4	0	3.0	0.71
CC(=O)Nc1ccc(NC(=O)c2cc(-c3ccc(C)cc3O)n[nH]2)cc1	8	15	-0.9	50	i	-5.3	-4	3.8	0.67
CCOc1ccc(N2C(=O)CC(NCCc3ccncc3)C2=O)cc1 (stereo unspecified)	11	7	3.0	-6	i	1.0	-1	1.2	0.72
CC(=O)c1ccc(NC(=O)CN2CCCCCC2)cc1	11	9	0.9	-2	i	-4.1	-3	-1.1	0.66
Cc1ccc(NC2CCCN(C(=O)c3cccc4nccnc34)C2)cc1C (stereo unspecified)	4	1	0.1	88*	i	-3.8	-3	-0.4	0.68
CCOC(=O)c1ccccc1N=Cc1c(O)c2ccccc2oc1=O	-3	0	-4.9	-12	i	-3.6	12	-195	0.7
CCOC(=O)C1CCN(C(=O)/C(C)=C\c2ccccc2)CC1	-4	-8	2.5	-3	i	-0.1	-4	2.5	0.67

Compound activity deposited in PubChem by several laboratories.
